Calb biofilm kill: clotrimazole potentiators killing C. albicans biofilm, primary screen, 4-compound mixtures. inhibition, % at 7.6 µM. C. albicans biofilm persisters + clotrimazole, fluorescence viability; primary screen in compound mixtures of four per well. 120,000 compounds, 0.02% hits;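 active = inhibition above 30.3% in the primary screen of four-compound pools, then above 30% when the compound was retested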;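 also: compounds exposed to preformed 24 h biofilms for 48 h; the number belongs to the whole pool; some results filed as inactive read as strong as hits; inactives centre near 12; 0% = biofilm with clotrimazole alone and 100% = kill control; retested singly at about 60 µM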
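Incubation: 24 h biofilm formation, then 48 h compound exposure, 37 °C | Material: C. albicans biofilms | Buffer or medium: RPMI/MOPS medium, pH 7.0 | Measured by: 2-h Alamar Blue fluorescence, 535/590 nm excitation/emission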
* = called active by the depositor. Only part of the results is shown, so the mix of outcomes need not match the whole.

SMILES | Calb biofilm kill
COc1ccccc1-n1cnnc1SCC(=O)N1CCN(C(=O)c2ccco2)CC1 | 1
Cc1nonc1C(=O)N/N=C/c1ccc(O)cc1O | 22
CCC(=O)NC(C)C(c1cccs1)N1CCN(c2ccccc2)CC1 (stereo not drawn) | 9
COC(=O)c1c(NC(=O)CSc2nnc(-c3ccco3)n2C)sc(C)c1C | 15
COc1ccc(-c2nn(-c3ccccc3C)cc2CNC(C)Cn2cncn2)cc1F (stereo not drawn) | 30
CC(C)=C1C2CCC1C1C(=O)N(c3nc(-c4ccccc4)c(C)s3)C(=O)C21 (stereo not drawn) | 7
C=CCOc1cccc(CNc2cccc(C(=O)O)c2)c1 | 27
CCCCNC(=S)N1CCn2cccc2C1c1ccccc1 (stereo not drawn) | -2
CC(C)n1cnnc1SCC(=O)Nc1cccc(S(=O)(=O)N(C)c2ccccc2)c1 | 20
O=C(CSc1ccc2nnc(-c3ccncc3)n2n1)NCC1CCCO1 (stereo not drawn) | 17
O=c1[nH]c(=O)c2nc3c4ccccc4c4ccccc4c3nc2[nH]1 | 6
COc1cc(C2NCCC(=O)C2(C)C)cc(OC)c1OC (stereo not drawn) | 12
CCOc1ccc(-n2c(C)cc(C(=O)CCl)c2C)cc1 | 19
CC(C)(C)C1(O)CC(C(F)(F)F)=NN1C(=O)CCc1ccccc1 (stereo not drawn) | 15
CSc1nsc(SC)c1C(=O)Nc1ccc(C(C)(C)C)cc1 | 11
O=S(=O)(Nc1cccc(CCc2ccccn2)c1)c1ccc(Cl)cc1 | 12
CCCCn1nnc(NC(=S)NC(=O)c2ccc(-c3cccc(Cl)c3Cl)o2)n1 | 5
O=C(Nc1ccc2c(c1)CCC2)c1ccc(F)cc1 | 11
COc1ccc2cnn(-c3ccc(OC(F)(F)F)cc3)c(=O)c2c1OC | 18
Cn1c(=O)c2cc3ccc(Cl)cc3nc2n(C)c1=O | 19
O=C1c2ccccc2C(=O)N1/N=C/c1ccc(O)c(O)c1O | 19
C/C(=N\S(=O)(=O)c1ccc(C)cc1)N1CCCCC1 | 0
CN(C(=O)N1CCN(S(=O)(=O)c2ccccc2)CC1)c1ccccc1 | 14
O=C(/C=C/c1ccc([N+](=O)[O-])cc1)N1CCN(c2ccccc2F)CC1 | 14
COc1ccc(N=C2SC(C(=O)N3CCN(c4ccc([N+](=O)[O-])cc4)CC3)CC(=O)N2C)cc1 (stereo not drawn) | 0
COc1cc(C)c(NC(c2ccccc2)c2ccccc2)cc1OC | 21
N#C/C(=C\c1ccc(N2CCOCC2)cc1)c1ccccc1 | 14
CCn1cc(Br)c(C(=O)Nc2ccccc2C(=O)OC)n1 | 9
COCCCNC(=S)NCCc1ccc(F)cc1 | 12
Cc1nc(C)c(C(=O)NNS(=O)(=O)c2ccc3ccccc3c2)s1 | 15
Nc1nc(-c2ccc(Cl)cc2)c(N=Nc2ccc(S(=O)(=O)N3CCOCC3)cc2)s1 | 4
S=c1[nH]nc(-c2ccco2)n1/N=C/c1ccccn1 | 4
O=C(CS(=O)(=O)c1ccccc1)Nc1ccc(S(=O)(=O)Nc2ncccn2)cc1 | 2
Cc1ccc(S(=O)(=O)Nc2nc3c(s2)C(=O)CC(C)(C)C3)cc1 | 16
CSCc1ccc(C(=O)NCc2ccc(F)cc2)cc1 | 12
CCOc1ccc(N(CC(=O)Nc2nccs2)S(=O)(=O)c2c(C)[nH]c(=O)[nH]c2=O)cc1 | -1
O=C(CSc1nnc2ccccn12)Nc1nsc(-c2ccccc2)n1 | 17
O=S(=O)(Cc1ccccc1)N=Nc1c(O)[nH]c2ccc(Br)cc12 | 17
O=C(NCc1ccccn1)c1ccc(N2CCCC2)c([N+](=O)[O-])c1 | 1
Cn1ccnc1C1CCCCN1Cc1nc(Cc2ccccc2F)no1 (stereo not drawn) | 13
CC1CCCC(NC(=S)Nc2cccc(S(=O)(=O)N(C)C)c2)C1C (stereo not drawn) | 9
COc1ccc(N2CCN(CCCNC(=O)C3CCCN(S(=O)(=O)c4c(C)n[nH]c4C)C3)CC2)cc1 (stereo not drawn) | 9
NC(N)=NS(=O)(=O)c1ccc(NC(=S)NC(=O)c2sc3ccccc3c2Cl)cc1 | 22
O=C(OCC1CC(c2ccccc2)=NO1)c1ccco1 (stereo not drawn) | 18
COC(=O)C1=CN(Cc2ccc(OC)c(OC)c2)C=C(C(=O)OC)C1c1cccs1 | 3
CCn1cc(C(=O)N2CCN(c3cccc(C)c3C)CC2)c(=O)c2ccc(C)nc21 | 28
Cc1nc2ccccc2c(=O)n1Cc1ccco1 | 14
COc1ccc(OC)c(/C=C/C(=O)Nc2ccc(OC)nc2)c1 | 9
Cc1ccc(-n2c(=O)cc(N3CCc4ccccc4C3)[nH]c2=O)cc1 | 9
COc1ccc(C(=O)Oc2cc(OC)cc(OC)c2C(C)=O)cc1 | 0
The listing continues:
SMILES | Calb biofilm kill
Cc1ccc(NC(=O)CS(=O)(=O)c2cn(CC(=O)N3CCOCC3)c3ccccc23)cc1 | 13
Nc1nonc1C(=O)N1CCCC1 | 10
COc1ccccc1CCNC(=O)NC1CCCCC1 | 14
CCOC(=O)Nc1ccc2nc3n(c(=O)c2c1)CCCCC3 | 26
Cc1nn(-c2ccccc2)c(N2CCCC2)c1/C=N/NC(=O)c1cc(-c2ccccn2)nc2ccccc12 | 11
C=CCN1C(=O)CS/C1=N\N=C\c1cccc([N+](=O)[O-])c1 | 9
CC(C)(C)N1CCC1C(N)=O (stereo not drawn) | -1
CN(C(=O)COC(=O)c1ccc(NS(=O)(=O)c2cccs2)cc1)C1CCCCC1 | 15
Cc1ccccc1N=Nc1ccc(O)c2ncccc12 | 19
O=C(CCCN1C(=O)c2ccccc2C1=O)NCc1ccco1 | 7

Looked up one by one from the list above, two records:
SMILES | Calb biofilm kill
CCOC(=O)Nc1ccc2nc3n(c(=O)c2c1)CCCCC3 | 26
COc1ccccc1CCNC(=O)NC1CCCCC1 | 14

More structures
SMILES | Calb biofilm kill
C/C(=N\NC(=O)c1ccc(O)cc1)c1ccc2c(c1)Nc1ccccc1S2 | 28
CC(=O)NC(C)C(=O)OCC(=O)c1ccc(-c2ccccc2)cc1 (stereo not drawn) | 4
COc1ccc(CNC(=O)C(OC(=O)c2nsc(Cl)c2Cl)C(C)C)cc1 (stereo not drawn) | 3
Cc1cccc(-c2csc(N)c2C(=O)OC(C)C)c1 | 4
Cc1ccc(-c2cc(Cc3ccncc3)c(=O)[nH]n2)cc1 | 25
CCO[C@H]1OC(C(=O)N2CCN(C)CC2)=C[C@@H](c2coc3ccccc3c2=O)[C@@H]1CCCO | 19
COc1cc2c(cc1OC)C(C(C)C)=NC(C)(C)C2 | 14
Cc1nc(/N=C(\N)NC(=O)NC2CCCCC2)nc2ccccc12 | 2
Fc1cccc(Cc2noc(CN3CCN(C4CCc5ccccc5C4)CC3)n2)c1 (stereo not drawn) | 11
Cc1ccc(S(=O)(=O)N2CCC(C(=O)N/N=C/c3ccccc3[N+](=O)[O-])CC2)cc1 | 8

In another format: four of the compounds above
> CCO[C@H]1OC(C(=O)N2CCN(C)CC2)=C[C@@H](c2coc3ccccc3c2=O)[C@@H]1CCCO
  Calb biofilm kill = 19
> COc1cc2c(cc1OC)C(C(C)C)=NC(C)(C)C2
  Calb biofilm kill = 14
> Cc1nc(/N=C(\N)NC(=O)NC2CCCCC2)nc2ccccc12
  Calb biofilm kill = 2
> Fc1cccc(Cc2noc(CN3CCN(C4CCc5ccccc5C4)CC3)n2)c1 (stereo not drawn)
  Calb biofilm kill = 11

The listing continues:
SMILES | Calb biofilm kill
COC(=O)c1sccc1N(C)S(C)(=O)=O | -6
O=C(CCn1c2c(c3ccccc31)CCCC2)NNC(=O)c1ccccc1C(=O)O | 13
CCOc1c(O)ccc(/C=C2\SC(=S)NC2=O)c1[N+](=O)[O-] | 10
COc1ccc(CCNC2=C(Cl)C(=O)N(Cc3ccccc3)C2=O)cc1OC | 8
O=C(N/N=C/c1cccs1)c1ccc2c(c1)OCO2 | 18
Cc1cccc(OCCCn2c(CCNC(=O)C(C)C)nc3ccccc32)c1 | 14
O=C(CCN1C(=O)c2cccc3cccc(c23)C1=O)NCc1ccco1 | 13
NC(=S)N/N=C/c1coc2cc(Br)ccc2c1=O | 1
COc1ccc(/C=N/NC(=O)c2[nH]c3ccc(Br)cc3c2-c2ccccc2)cc1 | 7
Cc1nnc(SCC(=O)NC(=O)Nc2ccc3c(c2)OCCO3)n1N | -6
COc1cccc(CN2CCNC(=O)C2CC(=O)N2CCOc3ccccc3C2)c1OC (stereo not drawn) | 14
O=C(CC(c1ccccc1)c1cc(Cl)ccc1O)NCCN1CCOCC1 (stereo not drawn) | 5
CCn1c(O)c(C#N)c(C)cc1=O | 12
CCOc1ccc(NC(=O)c2ccc(CSc3nnnn3C)cc2)cc1 | 12
COc1c2c(cc3oc(C)cc(=O)c13)OC(C(C)(C)OC1OC(CO)C(O)C(O)C1O)C2 (stereo not drawn) | 13
O=C(COC(=O)/C=C/c1ccco1)NCc1ccco1 | 4
COc1ccc(/C=N/NC(=O)CCN2CCCCC2c2cccnc2)cc1Cn1cc([N+](=O)[O-])cn1 (stereo not drawn) | 13
CCC(=O)Nc1ccc(NC(=S)Nc2ccccc2)cc1 | 1
CC1(C)C(=O)NCCN1C(=O)CC1C(=O)NCCN1CC(c1ccccc1)c1ccccc1 (stereo not drawn) | 25
C=C1CCC(C)C(C)(CCC2=CCOC2=O)C/C=C\C=C/1C(=O)O (stereo not drawn) | 15
CN(C)/C=C/C(=O)c1ccc(-n2cccc2)cc1 | 16
CSc1nc(-c2ccccc2)nn1S(=O)(=O)c1ccccc1 | 15
Cc1ccc2c(c1)C(=NC1CCCCC1)c1cc3ccccc3nc1-2 | 8
CSc1scc2c1-c1nc(SCC(=O)C(C)(C)C)ncc1CC2 | 13
Cc1ccc(NC(=O)CCCc2ccccc2)nc1 | 5
O=c1cc(/C=C/c2ccccc2)oc2c1ccc1ccccc12 | 6
COC(=O)[C@H](CCSC)NC(=O)Nc1cccc(Br)c1 | 17
COc1cc(OC)c(OC)cc1/C=N/NC(=S)NCCN1CCOCC1 | 6
O=C(N/N=C/c1ccc2cccnc2c1)c1nc2ccccc2c(=O)[nH]1 | 16
OC1CCCN(C(=S)Nc2ccc(SC(F)F)cc2)C1 (stereo not drawn) | -3
Cc1cc(Br)cnc1NC(=S)Nc1ccc(F)cc1F | 6
O=C(CNC(=O)c1ccc(-c2ccccc2)cc1)OCc1ccc(Cl)cc1 | 18
CCCCNC(=O)c1cccc(NC(=O)C(=O)c2ccccc2NC(C)=O)c1 | 20
COc1cc(/C=C/C(=O)OCC(=O)N2CCc3ccccc3C2)ccc1O | 7
COc1ccc(NC(=S)NN2CCOCC2)cc1OC | 3
Nc1cccc(C(=O)O)c1 | 17
Cc1c(-c2ncn[nH]2)sc(C#N)c1-c1ccccc1 | 12
CC(O)CNCCCOc1ccccc1OCc1ccccc1 (stereo not drawn) | 19
CCSc1ccccc1C(=O)NC1CCCCC1 | 15
O=C(NCc1ccco1)c1ccc(COc2cc(Cl)ccc2Cl)cc1 | 12
Cc1cccc(C)c1Nc1nnc(SCc2nc3ccccc3s2)s1 | 23
CCCCOc1ccc(C(O)C(CN2CCCCC2)c2ccccc2)cc1 (stereo not drawn) | 12
C/C(=N\Nc1ccc(S(=O)(=O)Nc2ccccc2)cc1[N+](=O)[O-])c1ccncc1 | 15
BrC(/C=C\c1ccccc1)=N/Nc1nc(N2CCOCC2)nc(N2CCOCC2)n1 | 5
CC(=O)c1cccc(NC(=S)NCCCCc2ccccc2)c1 | 15
COc1ccccc1N1C(=O)CC(Sc2n[nH]c(-c3cccc(C)c3)n2)C1=O (stereo not drawn) | 13
C=CCOc1ccc(CNc2ccc3[nH]c(=O)[nH]c3c2)cc1OC | 8
O=C(N/C(=C/c1ccccc1)C(=O)N1CCCCCC1)c1ccccc1 | 12
CCN(CC)S(=O)(=O)c1ccc(-c2cc(C(=O)OC)sc2C(F)(F)F)cc1 | 24
Cc1cc(C)c2c(CC(=O)O)c(C)[nH]c2c1 | -5

Some of the entries so far, comma-delimited.
molecule,Calb biofilm kill
CCN(CC)S(=O)(=O)c1ccc(-c2cc(C(=O)OC)sc2C(F)(F)F)cc1,24
Cc1cc(C)c2c(CC(=O)O)c(C)[nH]c2c1,-5

More results.
SMILES | Calb biofilm kill
COc1ccc(CCNC2=CC(=O)CC(C)(C)C2)cc1 | 12
CCOc1ccc(C(CC(=O)O)NC(=O)c2cccs2)cc1OC (stereo not drawn) | 16
N#Cc1ccccc1S(=O)(=O)N1CCN(CC(O)c2ccccc2)CC1 (stereo not drawn) | 9
O=C(NC1CCC(O)CC1)c1ccc(-c2ccc([N+](=O)[O-])cc2)o1 (stereo not drawn) | 14
Cc1ccsc1/C=N\NC(=O)CCc1c(C)n[nH]c1C | 11
COc1ccccc1OCC(=O)Nc1cccc(-c2nnc(-c3ccco3)o2)c1 | 12
Cc1ccc(CN2CCN(CCCn3cccn3)CC2CCO)cc1 (stereo not drawn) | 12
O=C(CSc1ccccc1)NCc1ccco1 | 14
CN1C(=O)N(c2nnc(C(C)(C)C)s2)C(=O)C1c1ccccc1 (stereo not drawn) | 16
CSc1nsc(SCC(=O)N2CCCCC2)n1 | 10
CCOC(=O)C1=C(C(F)(F)F)Nc2ncnn2C1c1cc(OC)c(OC)cc1OC (stereo not drawn) | 12
O=C(Cc1ccccc1[N+](=O)[O-])NCCC1=CCCCC1 | 20
CNC(=O)COc1ccc(S(=O)(=O)Nc2ccccc2)cc1 | 8
CC(=O)c1nnn(-c2ccc([N+](=O)[O-])cc2C)c1C | 6
O=C(NNC(=O)c1ccccc1Cl)c1ccncc1 | 15
Cc1ccc(C)c(S(=O)(=O)ON2C(=O)c3ccccc3C2=O)c1 | 6
CC1=CC(C)C2COC(c3ccc[n+](C)c3)C1C2C (stereo not drawn) | 15
O=C(NC(=S)Nc1ccccc1N1CCOCC1)c1cccs1 | 10
CCCc1cc(C(=O)OC)c(NC(=O)CCC(=O)O)s1 | 9

Compound activity: PubChem, PCMD
